# Screening data (PubChem BioAssay)
# GIV Gai3 FP = blocks GIV peptide binding to rat Galpha-i3; Galpha-i3/FITC-GIV peptide fluorescence polarization, 90 min; hits give low values; scaled: aluminum fluoride 0%, vehicle 100%; hit rate 0.42% among 210,000; percent of control (FP), % (concentration not given with the values); P08753;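 active means replicate mean at 85% of control or lower, very high polarization wells dropped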;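 further: wells of about 15 µL received 100 nL stock; the first replicate is given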
# Target sequence (P08753 whole entry, looked up): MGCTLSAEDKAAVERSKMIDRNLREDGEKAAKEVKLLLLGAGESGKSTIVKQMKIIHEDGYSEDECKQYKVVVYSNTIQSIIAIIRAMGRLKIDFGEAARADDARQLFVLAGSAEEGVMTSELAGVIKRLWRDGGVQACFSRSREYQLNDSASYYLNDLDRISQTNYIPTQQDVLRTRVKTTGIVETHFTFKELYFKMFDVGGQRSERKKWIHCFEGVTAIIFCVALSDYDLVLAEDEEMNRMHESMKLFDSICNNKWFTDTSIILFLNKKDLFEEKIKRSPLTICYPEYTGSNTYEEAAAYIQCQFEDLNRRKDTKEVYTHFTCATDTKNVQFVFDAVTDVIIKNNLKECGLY
# * marks the source's active call; other numbers are inactive results. Only part of the results is shown; the hit share may differ from the screen's.
Cc1ccccc1N1CC(O)(c2ccccc2)[N+]2=C1SCCC2 (configuration not stated)
  GIV Gai3 FP = 101
Cc1nn(-c2ccc3nnc(C)n3n2)c2c1C(c1ccc(OCc3cccc(Cl)c3)cc1)CC(=O)N2 (configuration not stated)
  GIV Gai3 FP = 100
Cc1ccc2c(c1)N(C)C(=O)CC(c1ccccc1)=N2
  GIV Gai3 FP = 101
COc1ccc(-n2ncc3c(N4CCN(c5cc(C)ccc5C)CC4)ncnc32)cc1
  GIV Gai3 FP = 103
N#CC1=C(N)n2c(s/c(=C/c3ccc(OCc4ccccc4)cc3)c2=O)=C(C#N)C1c1ccc(OCc2ccccc2)cc1 (configuration not stated)
  GIV Gai3 FP = 111
O=C(CN1C(=O)C(C(=O)N2CCCC2)Sc2ccccc21)N1CCc2ccccc2C1 (configuration not stated)
  GIV Gai3 FP = 103
Cc1cc(C2CCCN2C(=O)c2cc(C3CCCCC3)no2)no1 (configuration not stated)
  GIV Gai3 FP = 106
Cc1nc2c(C(=O)NCCN3CCOCC3)cnn2c(C)c1Cc1ccccc1Cl
  GIV Gai3 FP = 105
Cc1[nH]n(-c2ccccc2)c(=O)c1C(c1cc([N+](=O)[O-])ccc1O)c1c(C)[nH]n(-c2ccccc2)c1=O
  GIV Gai3 FP = 76*
Cc1cccc(CNC2=NCCNC23CCN(S(=O)(=O)c2cc(C)ccc2C)CC3)c1
  GIV Gai3 FP = 110
CCN(CC)CCNC(=O)c1sc2ncnc(N(C)c3ccccc3)c2c1C
  GIV Gai3 FP = 103
CCc1ccc2c(c1)[C@H]1OCC[C@H]1C(c1cc(I)c(OC)c(OC)c1)N2 (some centres not stated)
  GIV Gai3 FP = 102
CCOc1ccc(C2Nc3ccc(Cl)cc3[C@H]3OCCC[C@@H]23)cc1OCC (some centres not stated)
  GIV Gai3 FP = 100
CCOc1cc(C2CC(=O)Nc3c2ccc2ccccc32)ccc1O (configuration not stated)
  GIV Gai3 FP = 103
Cc1ccc2c(c1)-c1c(ssc1=S)C(C)(C)N2C(=O)CCC1CCCCC1
  GIV Gai3 FP = 116
CC(=O)NC1C(OC(C)(C)C)OC(COC(C)=O)C(OC(C)=O)C1OC(C)=O (configuration not stated)
  GIV Gai3 FP = 108
N#Cc1c(C(F)(F)F)cc(-c2cccs2)nc1SCC(=O)Nc1ccc(C(N)=O)cc1
  GIV Gai3 FP = 109
Cc1cc(C)c(C2=NON3N(C(=O)c4ccc(F)cc4)c4ccccc4N23)c(C)c1
  GIV Gai3 FP = 102
COc1ccc(Oc2c(C(F)(F)F)oc3c(CN4CCCCC4C)c(O)ccc3c2=O)cc1 (configuration not stated)
  GIV Gai3 FP = 120
COc1ccc(N(CC(=O)Nc2c(C)n(C)n(-c3ccccc3)c2=O)S(=O)(=O)c2ccccc2)cc1
  GIV Gai3 FP = 103
CCOC(=O)C1=C(C)N=c2s/c(=C/c3cc(C)n(C)c3C)c(=O)n2C1c1cc(OC)ccc1OC (configuration not stated)
  GIV Gai3 FP = 150
CCSc1nnc(-c2nn(C)c3c2CN(S(=O)(=O)c2ccc(F)c(C)c2)CC3)n1CC
  GIV Gai3 FP = 107
Cc1c(CC(=O)O)c2c(n1-c1ccc(Br)cc1)CC(C)(C)CC2=O
  GIV Gai3 FP = 108
CCC(NS(=O)(=O)c1cccc2nsnc12)C12CC3CC(CC(C3)C1)C2 (configuration not stated)
  GIV Gai3 FP = 106
CN(C)c1ccc(C2/C(=C(/O)c3ccccc3)C(=O)C(=O)N2c2ccccc2)cc1 (configuration not stated)
  GIV Gai3 FP = 118

CCN(CC)c1ccc2cc(-c3nc(-c4ccc(Br)cc4)cs3)c(=Nc3ccc(OC)cc3)oc2c1
  GIV Gai3 FP = 139
Cc1ccc(Cc2nnc(-c3ccc(N)cc3Cl)o2)cc1
  GIV Gai3 FP = 98
O=C(CNC(=O)c1cccs1)N/N=C/c1ccc([N+](=O)[O-])s1
  GIV Gai3 FP = 110
CCCCn1c(CNC(=O)Cc2ccc(OC)cc2)nnc1SCC(=O)Nc1sc2c(c1C(=O)OCC)CCC2
  GIV Gai3 FP = 103
c1cc(-c2noc(-c3cc4ccccc4[nH]3)n2)cc(-c2ccn[nH]2)c1
  GIV Gai3 FP = 99
O=C(c1ccc(Cn2c(=S)[nH]c3ccc(Br)cc3c2=O)cc1)N1CCN(C(=O)c2ccco2)CC1
  GIV Gai3 FP = 116
CCOc1ccc(N2C(=O)C(C)SC23C(=O)N(CN2CCc4ccccc4C2)c2ccccc23)cc1 (configuration not stated)
  GIV Gai3 FP = 101
CCN(CC)c1ccc(NS(=O)(=O)c2cc(-c3nc(C)cs3)sc2C)c(C)c1
  GIV Gai3 FP = 102
O=C(c1cccc(Br)c1)N1CCc2c([nH]c3ccccc23)C1c1ccc([N+](=O)[O-])cc1 (configuration not stated)
  GIV Gai3 FP = 109
Cc1nn(-c2ccc3nnc(C)n3n2)c2c1C(c1cccc(OCc3cccc(F)c3)c1)CC(=O)N2 (configuration not stated)
  GIV Gai3 FP = 105
O=C(CCc1nc(CSc2nc3ccccc3[nH]2)no1)Nc1ccc2c(c1)OCO2
  GIV Gai3 FP = 105
Cc1ccc(Oc2ccc(-c3noc(C4CCCN(S(=O)(=O)c5ccc(C)cc5)C4)n3)cc2)cc1 (configuration not stated)
  GIV Gai3 FP = 102
CCOC(=O)C1Cn2c(nc3c(c2=O)C(C)(CC)Cc2ccccc2-3)S1 (configuration not stated)
  GIV Gai3 FP = 108
Cc1ccc(CN2CCNC(=O)C2=O)cc1
  GIV Gai3 FP = 96
CC(=NCCN1CCN(C(=O)c2ccccc2)CC1)c1c(C(F)(F)F)[nH]n(-c2nc3ccccc3s2)c1=O
  GIV Gai3 FP = 107
CCc1nnc(-c2coc(S(=O)(=O)N3CCOCC3)c2)o1
  GIV Gai3 FP = 94
Cc1nn(-c2nc3ccccc3[nH]2)c2c1C(c1c(F)cccc1F)CC(=O)N2 (configuration not stated)
  GIV Gai3 FP = 107
CCOc1ccccc1NS(=O)(=O)c1cc(-c2nc(C(C)(C)C)cs2)cs1
  GIV Gai3 FP = 106
CCOc1ccc(NC(=O)CSc2nc3ccccc3c(=O)n2CC2CCC(C(=O)NCC3CCCO3)CC2)cc1 (configuration not stated)
  GIV Gai3 FP = 107
CCOc1cc(C2C(C(=O)OC)=CN(Cc3ccc(OC)c(OC)c3)C=C2C(=O)OC)cc(Br)c1OCC
  GIV Gai3 FP = 108
Cc1ccc(C(=O)N/C(=C\c2cn(-c3ccccc3)nc2-c2ccccc2)C(=O)NCC2CCCO2)cc1 (configuration not stated)
  GIV Gai3 FP = 107
O=C1c2ccccc2-c2onc3ccc(Oc4ccccc4)c1c23
  GIV Gai3 FP = 114
COc1ccc(-n2cc(-c3ccccc3)c3c(NCCc4ccc(S(N)(=O)=O)cc4)ncnc32)cc1
  GIV Gai3 FP = 118
CCc1c(C)nc2ncnn2c1Sc1ccc(NC(=O)Nc2ccc3c(c2)OCO3)cc1
  GIV Gai3 FP = 105
CCOc1ccc(Nc2nc(NCCO)nc(N3CCOCC3)n2)cc1
  GIV Gai3 FP = 102

COCCCNc1ccc(C(=O)N2CCC3(CC2)OCCO3)cc1S(=O)(=O)Nc1cc(F)ccc1F
  GIV Gai3 FP = 120
COc1ccc(CCNS(=O)(=O)c2ccc(F)c(C(=O)Nc3ccc(C(F)(F)F)cc3)c2)cc1OC
  GIV Gai3 FP = 107
CCOc1ccc(OCC)c(NS(=O)(=O)c2cc(-c3cc(C)no3)cs2)c1
  GIV Gai3 FP = 115
CCN(CC)CCCNC(=O)c1ccc(Cn2c(=S)[nH]c3ccc(Br)cc3c2=O)cc1
  GIV Gai3 FP = 114
Cc1nn(-c2nc3ccc(Br)cc3s2)c2c1C(c1ccncc1)CC(=O)N2 (configuration not stated)
  GIV Gai3 FP = 103
OCCN(CCO)CC(O)Cn1c2ccc(Cl)cc2c2cc(Cl)ccc21 (configuration not stated)
  GIV Gai3 FP = 104
CCOC(=O)CSc1nc(NC2CCCCC2)c2ccccc2n1
  GIV Gai3 FP = 114
CCC(C)NC(=O)N1CCCN(S(C)(=O)=O)CC1 (configuration not stated)
  GIV Gai3 FP = 103
CCOC(=O)C1=C(c2ccccc2)N=C2SCC(=O)N2C1c1cccs1 (configuration not stated)
  GIV Gai3 FP = 99
CC1CC(Nc2ccccc2)c2ccccc2N1C(=O)c1cc([N+](=O)[O-])cc([N+](=O)[O-])c1 (configuration not stated)
  GIV Gai3 FP = 109
Cc1ncc2c(n1)CCN(S(=O)(=O)c1ccc(Br)s1)C2
  GIV Gai3 FP = 107
c1ccc2c(c1)N1CCN=C1N2CCN1CCOCC1
  GIV Gai3 FP = 106
COC(=O)c1c(NC(=O)CCN2C(=O)c3ccccc3C2=O)sc2c1CCC(C)C2 (configuration not stated)
  GIV Gai3 FP = 108
O=C(Nc1c2c(nn1-c1ccc(F)cc1)CS(=O)(=O)C2)c1ccc(C(=O)c2ccccc2)cc1
  GIV Gai3 FP = 97
O=C(c1ccc(F)cc1)N(NC(=O)C(O)(c1ccccc1)c1ccccc1)c1ccccc1
  GIV Gai3 FP = 105
Cc1ccccc1NS(=O)(=O)c1cc2c(c([N+](=O)[O-])c1)-c1c(cc(S(=O)(=O)Nc3ccccc3C)cc1[N+](=O)[O-])C2=NO
  GIV Gai3 FP = 118
CC(=O)C1C2=C(CC(C)(C)CC2=O)OC2=C1C(=O)CC(C)(C)C2
  GIV Gai3 FP = 108
COc1ccc(S(=O)(=O)NC2CCN(C(=O)C3(c4ccccc4)CC3)CC2)cc1
  GIV Gai3 FP = 103
CCCc1cc(C2CCCN2S(=O)(=O)CCC)no1 (configuration not stated)
  GIV Gai3 FP = 101
O=C(NC1CCCC1)c1cccn2c(-c3ccc(F)cc3)nnc12
  GIV Gai3 FP = 112
CC1CC(C)CN(c2nc3nonc3nc2N2CC(C)CC(C)C2)C1 (configuration not stated)
  GIV Gai3 FP = 109
Cc1c(Br)c(C(F)(F)F)nn1CC(=O)Nc1sc2c(c1C(N)=O)CCCC2
  GIV Gai3 FP = 110
CCc1cc(C2CCCN2C(=O)c2cc(C3CC3)on2)on1 (configuration not stated)
  GIV Gai3 FP = 100
Cc1ccc(/C(O)=C2\C(=O)C(=O)N(CCN(C)C)C2c2ccc(C(C)C)cc2)cc1 (configuration not stated)
  GIV Gai3 FP = 110
CCOC(=O)C1=CN(Cc2ccc(OC)c(OC)c2)C=C(C(=O)OCC)C1c1cc(Br)c(O)c(OC)c1
  GIV Gai3 FP = 103

CC(C)OCCCNC(=O)C(C)C1CCN(S(=O)(=O)c2cccs2)CC1 (configuration not stated)
  GIV Gai3 FP = 104
COc1ccccc1N(NC(=O)C(O)(c1ccccc1OC)c1ccccc1OC)C(=O)c1ccccc1
  GIV Gai3 FP = 96
Cc1ccc(C2CC(c3cccs3)=NN2C(=O)CSc2nnc(CNC(=O)c3ccco3)n2Cc2ccccc2)cc1 (configuration not stated)
  GIV Gai3 FP = 108
COc1cc(-c2nc3ccccc3c(=O)n2CC(=O)Nc2cccc(C)c2)cc(OC)c1OC
  GIV Gai3 FP = 104
Cc1ccc(OCc2nn(C3CC(=O)C4OCC3O4)c(=S)n2C)cc1C (configuration not stated)
  GIV Gai3 FP = 106
Cc1nccn1Cc1nc(C(C)C)no1
  GIV Gai3 FP = 106
Cc1ccc(S(=O)(=O)Nc2cc3c4c(oc3c3ccccc23)CC(C)(C)CC4=O)cc1
  GIV Gai3 FP = 115
O=C(Cc1ccccc1)Nn1c(SCC(=O)c2ccc(F)cc2)nc2ccccc2c1=O
  GIV Gai3 FP = 111
Cc1cccc2c1nc1s/c(=C\c3c(-c4ccccc4)n(C)c4ccccc34)c(=O)n12
  GIV Gai3 FP = 102
Cc1ccc(CN2CCCC2c2cc(C)on2)cc1 (configuration not stated)
  GIV Gai3 FP = 104
O=C(Nc1ccc(Br)cc1)NC(C(=O)N1CCc2ccccc21)c1ccccc1 (configuration not stated)
  GIV Gai3 FP = 98
CCN1C(=O)CC(C(=O)Nc2ccc(OC)cc2)SC1=Nc1cccc(Cl)c1 (configuration not stated)
  GIV Gai3 FP = 110
CC(=O)Nc1ccc(S(=O)(=O)N2CCCC2c2nc(-c3ccc(F)cc3)no2)cc1Cl (configuration not stated)
  GIV Gai3 FP = 96
CC1CCN(C(=O)c2cc(NS(=O)(=O)c3ccc4c(c3)CCCC4)ccc2N2CCNCC2)CC1
  GIV Gai3 FP = 107
CCc1nc(-c2csc(S(=O)(=O)N3CCN(C(c4ccccc4)c4ccccc4)CC3)c2)no1
  GIV Gai3 FP = 101
CCCCNC(=O)NC1C(NC(=O)NCCCC)N(C)C(=O)N1C (configuration not stated)
  GIV Gai3 FP = 106
Cc1cc(C)c2c(c1)c(-c1ccccc1)c(-c1ccccc1)n2CC(O)Cn1nnc2ccccc21 (configuration not stated)
  GIV Gai3 FP = 105
Cc1csc(-c2cc(S(=O)(=O)Nc3cc(F)ccc3F)cn2CC(=O)N2CCCC2)n1
  GIV Gai3 FP = 104
Cc1c(C(=O)Nc2ccc(Oc3ccccc3)cc2)sc2ncn(CC(=O)N3CCN(c4ccccn4)CC3)c(=O)c12
  GIV Gai3 FP = 106
O=C(NC1CCCCC1)c1nc(-n2cnnc2)ccc1Br
  GIV Gai3 FP = 109
C=CCn1c(SCC(=O)Nc2ccc(OCC)cc2)nc2cc(C(=O)NCC3CCCO3)ccc2c1=O (configuration not stated)
  GIV Gai3 FP = 107
COc1ccc(C2(c3ccc(OC)cc3)C=Cc3c(ccc4cc5ccccc5cc34)O2)cc1
  GIV Gai3 FP = 115
CCOc1ccc(C2Nc3ccc4ccccc4c3C3=C2C(=O)CCC3)cc1 (configuration not stated)
  GIV Gai3 FP = 109
Cc1ccc2c(c1)c1c3n2CCN(C(C)c2ccccc2)C3CCC1 (configuration not stated)
  GIV Gai3 FP = 107
CCc1ccc(NC(=O)Nc2nnc(CC(=O)NCc3ccccc3)s2)cc1
  GIV Gai3 FP = 107
Cc1noc2nc(CCC(=O)NC3CCS(=O)(=O)C3)nc(N3CCOCC3)c12 (configuration not stated)
  GIV Gai3 FP = 100
O=C(NC1CCCC1)c1ccc(-c2ccc(F)cc2)nc1
  GIV Gai3 FP = 110
Cc1ccc(C2CCCCCN2C(=O)Nc2ccc(Br)cc2)s1 (configuration not stated)
  GIV Gai3 FP = 103
